PABP polyA inh = PABP-poly(A) binding inhibition. 1% of 290,000 active. inhibition, % at 35 µM. PABP-poly(A) RNA binding, fluorescence polarization. AID 2014;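 active = 50% or more with normal probe brightness, or confirmed in later tests; inconclusive = above 50% with abnormal brightness, or retests that disagree; inactive = below 50% or failed in later tests; about a fifth of its hits are not listed in these tables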;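 also: calls also rest on retests at 20 µM and on dose response follow-up; controls were probe without protein and protein plus probe with vehicle; some compounds called inactive have numbers as strong as hits; many hits fall short of the cut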
Target sequence (P11940 whole entry, looked up): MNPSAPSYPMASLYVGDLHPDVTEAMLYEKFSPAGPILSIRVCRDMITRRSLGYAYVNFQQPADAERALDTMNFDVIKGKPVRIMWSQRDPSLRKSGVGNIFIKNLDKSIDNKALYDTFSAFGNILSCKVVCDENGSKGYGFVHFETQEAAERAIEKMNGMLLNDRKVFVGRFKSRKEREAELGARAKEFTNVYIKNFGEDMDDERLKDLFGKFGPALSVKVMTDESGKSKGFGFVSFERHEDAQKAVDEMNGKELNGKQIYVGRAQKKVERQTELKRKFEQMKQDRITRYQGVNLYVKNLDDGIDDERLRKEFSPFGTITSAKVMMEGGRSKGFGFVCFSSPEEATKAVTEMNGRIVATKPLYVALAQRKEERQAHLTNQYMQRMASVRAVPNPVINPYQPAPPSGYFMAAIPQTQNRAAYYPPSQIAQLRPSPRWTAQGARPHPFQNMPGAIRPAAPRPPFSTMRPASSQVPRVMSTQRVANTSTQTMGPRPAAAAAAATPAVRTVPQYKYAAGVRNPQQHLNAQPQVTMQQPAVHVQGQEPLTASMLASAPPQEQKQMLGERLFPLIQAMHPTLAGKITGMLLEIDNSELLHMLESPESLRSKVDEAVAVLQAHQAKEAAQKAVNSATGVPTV
UUG fidelity = yeast start codon fidelity modulation | S. cerevisiae UUG-firefly luciferase reporter, luminescence/redox ratio | AID 602363 | activity score, % at 18.7 µM | 0.13% of 350,000 active;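 active = replicate mean at a twofold rise or more, about +100% in these data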;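 also: firefly luciferase made from a UUG start codon reports start codon fidelity; reporter light over untreated wells divided by growth signal over untreated wells; some hits fall short of that in this replicate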
MT1-MMP act inh = MT1-MMP (human) activation inhibition. GFP/RFP ratio change, % at 20 µM. 0.061% of 360,000 active. P50281. HT1080 RFP-PRO-GFP cells, GFP/RFP ratio fluorescence, overnight; percent of plate control window, DMSO zero;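 active = GFP/RFP ratio change of at least 30% with cell ATP level not reduced by more than half and red fluorescence within 50% of control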; also: strong numbers were not always called active
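Assay system: HT1080 RFP-PRO-GFP cells | Dosing: 20 µM single dose, 1% DMSO | Incubation: Cells overnight before dosing, compound overnight, 37 °C, 5% CO2 | Evaluation: GFP/RFP fluorescence ratio | Control set: DMSO-only wells and HT1080 RFP-L50D-GFP cell wells as references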
CSC inhib = blocks cancer stem cells. 1.1% of 300,000 active. cancer stem cell-like cells viability, luminescence. AID 2717. inhibition, % at 7.5 µM;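 active = mean at 75% or more and at least half the replicates too; inconclusive = mean and replicates disagree; tested in HMLE shEcad cells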;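 also: 0% = median of negative and 100% = median of positive control wells; the first replicate is given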
Env fusion inh = blocks HIV Env-driven cell-cell fusion; HeLa-JRFL Env/CEM21 cell fusion, luciferase; inhibition, % at 12.3 µM; 1.1% of 360,000 active;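 active = mean replicate inhibition score of at least 50 and every replicate individually at or above 50; inconclusive = only one of the two criteria met; inactive = mean below 50 and not all replicates reaching 50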;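 also: 0% = plate neutral controls and 100% = maraviroc near 300 nM; one replicate is shown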
Rce1 inhib = blocks yeast Ras-converting enzyme; Q03530; yeast membranes, quenched prenylated peptide cleavage fluorescence; calls only; 0.27% of 290,000 active; AID 2563;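 active = fall in fluorescence gain of 50% or more versus controls, with final raw signal at or below 3038400; inconclusive = same 50% fall but final raw signal above 3038400; inactive = fall in fluorescence gain under 50%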;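 also: plate controls were neutral control wells for no effect and wells lacking membranes for full effect; tested at 10 µM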
Target sequence (Q03530 whole entry, looked up): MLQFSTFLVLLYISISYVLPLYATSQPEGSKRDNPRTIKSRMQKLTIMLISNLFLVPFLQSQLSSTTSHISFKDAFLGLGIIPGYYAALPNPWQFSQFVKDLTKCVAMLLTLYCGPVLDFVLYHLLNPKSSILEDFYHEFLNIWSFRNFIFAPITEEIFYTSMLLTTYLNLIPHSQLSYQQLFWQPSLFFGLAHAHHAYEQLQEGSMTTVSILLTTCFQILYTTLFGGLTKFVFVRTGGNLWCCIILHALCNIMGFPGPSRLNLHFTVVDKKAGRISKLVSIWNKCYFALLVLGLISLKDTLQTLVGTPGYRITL
eIF4H inh = inhibitors of RNA binding by human eIF4H | inhibition, % at 35 µM | AID 2012 | 0.94% of 290,000 active | Q15056 | eIF4H fluorescence polarization binding assay;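 active = 50% or more with normal probe brightness, or confirmed in later tests; inconclusive = above 50% with abnormal brightness, or retests that disagree; inactive = below 50% or failed in later tests; about a fifth of its hits are not listed in these tables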;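 also: calls also rest on retests at 20 µM and on dose response follow-up; 0% = protein and probe with vehicle and 100% = probe without protein; strong numbers were not always called active; many hits fall short of the cut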
eIF4H inh retest = further read-out of eIF4H inh, marked with its call; inhibition, %; compound at 20 µM; confirmation average;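 mean of two retest wells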
PABP polyA inh retest = second read-out of PABP polyA inh, no call of its own (marks repeat the call); inhibition, %; compound at 20 µM; confirmation repeats;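 mean of two retest wells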
MT1-MMP act inh RFP = recorded beside MT1-MMP act inh, whose call it bears; RFP signal change, %; measured here: RFP expression control read;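 0 = vehicle wells; hits needed this value within 50% of zero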
* hit, by the source's call; i = inactive; ? = inconclusive; · = no result given; + = active, no number; & = joins results of further samples.

SMILES	PABP polyA inh	UUG fidelity	MT1-MMP act inh	MT1-MMP act inh RFP	CSC inhib	Env fusion inh	Rce1 inhib	eIF4H inh	others
CCN(CC)CCCNC(=O)c1cc2c(-c3cccc(OC)c3)nn(C)c2s1	2	-5	3	1	31	-17	+	11
CCCCn1c(N)c(N(CC(C)C)C(=O)CC2OC(=O)c3ccccc32)c(=O)[nH]c1=O (centres undefined)	·	-20	-2	1	-2	-6	i	·
CCOc1ccc(NC(=O)c2cccc(S(=O)(=O)NCc3cccnc3)c2)cc1	·	-10	1	3	·	-9	·	·
CCCOc1nc(N)c(C#N)c(-c2ccccc2F)c1C#N	14	-11	-3	-3	·	·	i	-1
Cc1[nH]c2ccccc2c1CCO	-3	·	-7	-3	-4	·	i	-9
Fc1cccc(-n2c(-c3cccs3)nc3nc4ccccc4nc32)c1	0	·	·	·	?	·	i	9
C[C@@H]1CN([C@H](C)CO)C(=O)CCCn2cc(nn2)CO[C@H]1CN(C)S(=O)(=O)c1cccc(C#N)c1	·	-9	2	2	·	13	·	·
O=C(Nc1cccc(S(=O)(=O)N2CCCCC2)c1)c1ccc2ccccc2n1	8	·	-4	-13	5	19	i	-4
Cc1cc(-c2ccccc2)nc2c(Br)c(=O)[nH]n12	-4	·	-4	0	8	-2	i	4
CCOc1ccc(N(CC(=O)Nc2ccccc2F)S(=O)(=O)c2c(C)[nH]c(=O)[nH]c2=O)cc1	·	-9	3	3	-6	3	i	·
COc1ccc(S(=O)(=O)Nc2c(C)n(C)n(-c3ccccc3)c2=O)cc1Br	9	-11	7	0	-5	4	i	-2
CCOc1ccc(NC(=O)N(CCN(C)C)C(C)c2ccncc2)cc1 (centres undefined)	-9	-3	1	4	1	11	i	-6

The last five compounds of the part above open the next one:
SMILES	PABP polyA inh	UUG fidelity	MT1-MMP act inh	MT1-MMP act inh RFP	CSC inhib	Env fusion inh	Rce1 inhib	eIF4H inh	others
O=C(Nc1cccc(S(=O)(=O)N2CCCCC2)c1)c1ccc2ccccc2n1	8	·	-4	-13	5	19	i	-4
Cc1cc(-c2ccccc2)nc2c(Br)c(=O)[nH]n12	-4	·	-4	0	8	-2	i	4
CCOc1ccc(N(CC(=O)Nc2ccccc2F)S(=O)(=O)c2c(C)[nH]c(=O)[nH]c2=O)cc1	·	-9	3	3	-6	3	i	·
COc1ccc(S(=O)(=O)Nc2c(C)n(C)n(-c3ccccc3)c2=O)cc1Br	9	-11	7	0	-5	4	i	-2
CCOc1ccc(NC(=O)N(CCN(C)C)C(C)c2ccncc2)cc1 (centres undefined)	-9	-3	1	4	1	11	i	-6
CS(=O)(=O)c1ccc2nc(NC(NC(=O)c3ccco3)(C(F)(F)F)C(F)(F)F)sc2c1	-13	2	3	0	-2	5	i	-5
CC(=O)c1c(C)[nH]c(C(=O)Nc2ccc(Cl)cc2F)c1C	-3	-17	-8	-5	24	-78	i	-1
COc1ccccc1OCCC(=O)OCC(=O)NC(=O)NC(C)(C)C	-10	1	0	-2	0	·	i	-3
CCCCC1CCC(C(=O)N(CCCC)c2c(N)n(CCCC)c(=O)[nH]c2=O)CC1 (centres undefined)	4	-12	-14	-18	54	·	i	4
O=C1CC(N2CCN(CCc3ccccn3)CC2)C(=O)N1c1ccc(Cl)cc1 (centres undefined)	10	-19	-3	2	-14	·	i	0
Cc1ccc(C)c(NC(=O)CCN2C(=O)[C@@H]3Cc4ccccc4CN3C2=O)c1	2	-2	0	2	5	6	i	-2
Nn1c(SCC(=O)Nc2cccc(Br)c2)nnc1C1CC1	·	-12	9	6	-8	·	·	·
Cc1cc(C(F)(F)F)c(C#N)c(SCC(=O)NC2CC2)n1	-4	-6	0	1	-6	-13	i	-9
COC(=O)c1ccc(CC(=O)c2c(C)cc(O)cc2O)o1	51*	-5	-10	0	11	10	i	80*
COc1cc(Br)c(C2CC(=O)Nc3cc(OC)c(OC)cc32)cc1OC (centres undefined)	-5	-22	1	2	-3	11	i	-1
COc1ccc(-n2nc3c(c2NC(=O)c2ccc(S(=O)(=O)N4CCOCC4)cc2)CS(=O)(=O)C3)cc1	-8	·	-2	2	-9	14	i	-4
N#Cc1nc(-c2ccccc2Cl)oc1NCc1ccco1	1	-11	2	-1	6	·	i	11

6 entries already listed, sorted by molar mass, smallest number first.
SMILES	PABP polyA inh	UUG fidelity	MT1-MMP act inh	MT1-MMP act inh RFP	CSC inhib	Env fusion inh	Rce1 inhib	eIF4H inh	others
CC(=O)c1c(C)[nH]c(C(=O)Nc2ccc(Cl)cc2F)c1C	-3	-17	-8	-5	24	-78	i	-1
Cc1cc(C(F)(F)F)c(C#N)c(SCC(=O)NC2CC2)n1	-4	-6	0	1	-6	-13	i	-9
Cc1ccc(C)c(NC(=O)CCN2C(=O)[C@@H]3Cc4ccccc4CN3C2=O)c1	2	-2	0	2	5	6	i	-2
O=C1CC(N2CCN(CCc3ccccn3)CC2)C(=O)N1c1ccc(Cl)cc1 (centres undefined)	10	-19	-3	2	-14	·	i	0
CCCCC1CCC(C(=O)N(CCCC)c2c(N)n(CCCC)c(=O)[nH]c2=O)CC1 (centres undefined)	4	-12	-14	-18	54	·	i	4
COc1cc(Br)c(C2CC(=O)Nc3cc(OC)c(OC)cc32)cc1OC (centres undefined)	-5	-22	1	2	-3	11	i	-1

Next compounds follow:
SMILES	PABP polyA inh	UUG fidelity	MT1-MMP act inh	MT1-MMP act inh RFP	CSC inhib	Env fusion inh	Rce1 inhib	eIF4H inh	others
Cc1cc(N2CCN(C)CC2)nc(N2CCOCC2)n1	13	-7	-2	-6	2	·	i	-16
O=C(Nc1ccc2c(c1)CCC2)c1c(F)cccc1Cl	-2	·	-1	0	-12	-54	i	0
CCCc1cc2nnc(SCC(=O)N(C)C3CCCCC3)n2c(N)n1	4	6	-5	1	-12	0	i	-6
COC(=O)c1cc(OC)c(OC)cc1NC(=O)c1cc(C(C)(C)C)oc1C	9	·	0	-5	8	8	i	13
O=S(=O)(Nc1ccc(Cc2ccncc2)cc1)c1ccc(Cl)c(Cl)c1	-5	-20	-45	-37	·	·	i	-6
CCOC(=O)c1sc2ncnc(N3CCN(c4ccc(OC)cc4)CC3)c2c1C	-2	-22	5	1	25	·	i	-6
C[C@@H]1CN([C@H](C)CO)C(=O)CCCn2nncc2CO[C@H]1CN(C)C(=O)Nc1ccnc(N2CCOCC2)c1	·	-13&-1	6	5	·	7	·	·
CCOC(=O)N1CCN(C(c2ccccc2)c2sc3nc(C)nn3c2O)CC1 (centres undefined)	19	-13	-5	-4	-4	·	i	-5
CCn1c(=O)c2ccccc2n2c(SCC(=O)N3CCc4ccccc4C3)nnc12	11	-4	-2	2	-3	-18	i	8
COc1ccccc1N1CCN(C(=O)COc2ccc(Cl)cc2Br)CC1	2	10	-4	-14	·	·	i	2
COc1ccc(N(C(=O)c2ccco2)C(C(=O)NC2CCCC2)c2cc(OC)c(OC)c(OC)c2)cc1 (centres undefined)	2	-8	2	5	·	17	i	-9
CN(C)CCCNC(=O)CCC1CCCCC1	-4	-15	-2	3	-7	·	i	-7

Among those listed so far, 2 have a tert-butyl group:
SMILES	PABP polyA inh	UUG fidelity	MT1-MMP act inh	MT1-MMP act inh RFP	CSC inhib	Env fusion inh	Rce1 inhib	eIF4H inh	others
COc1ccccc1OCCC(=O)OCC(=O)NC(=O)NC(C)(C)C	-10	1	0	-2	0	·	i	-3
COC(=O)c1cc(OC)c(OC)cc1NC(=O)c1cc(C(C)(C)C)oc1C	9	·	0	-5	8	8	i	13

Carrying on:
SMILES	PABP polyA inh	UUG fidelity	MT1-MMP act inh	MT1-MMP act inh RFP	CSC inhib	Env fusion inh	Rce1 inhib	eIF4H inh	others
Cc1ccc(S(=O)(=O)Nc2cccc(C(=O)NCC3CCCO3)c2)cc1F (centres undefined)	·	·	5	-3	-4	5	i	·
O=C(O)c1cccc(NC(=S)NC(=O)c2ccc(-c3ccccc3)cc2)c1	17	·	0	0	-5	-74	i	9
N/C(=N\OC(=O)/C=C/c1ccccc1)c1ccccc1	11	-36	4	4	2	·	i	-4
Cc1ccc(Nc2nc(N)c(C#N)c(CC#N)c2C#N)cc1	-6	·	-4	-3	0	-5	i	-4
COc1ccc(N2CCN(C(=O)CCCCn3c(=O)[nH]c4ccsc4c3=O)CC2)cc1	-11	7	5	0	6	1	i	35
Cc1cccc(N2CCN(c3nc4ccccc4n4cnnc34)CC2)c1C	-4	-13	-1	-2	22	9	i	6
Cc1nnsc1C(=O)Nc1ccc(S(=O)(=O)N2CCCC(C)C2)cc1 (centres undefined)	-2	-27	1	-11	·	-4	i	-16
COc1ccc(OC)c(S(=O)(=O)N2CCN(c3ncccn3)CC2)c1	0	3	-9	-2	8	-1	i	-6
Cc1ccccc1-n1c(SCC(=O)N2CCCC2)nnc1-c1ccccn1	10	-17	13	4	-11	·	i	-4
CC(OC(=O)c1ccc([N+](=O)[O-])o1)C(=O)NC1CCCCC1C (centres undefined)	·	-17	-3	-2	-14	-5	·	·
CCOC(=O)Cc1csc(SC(C)C(=O)NCC(=O)Nc2ccc(F)c(F)c2F)n1 (centres undefined)	1	-11	-4	-1	-5	-6	i	-6
CC(/C=C/c1ccccc1)=N\Nc1nc(C)cc(C)n1	-5	-35	1	3	-26	-14	i	7
O=C(Nc1nnc(C2CC2)s1)c1cccs1	5	-9	1	-2	6	-68	i	0
COc1ccc(OC)c(CN2CCN(Cc3cc(OC)c(OC)c(OC)c3)CC2)c1	4	-9	8	13	-13	16	i	13
CC(=O)CSc1nnc2cc(C)c3ccccc3n12	59	-11	-3	4	-11	-12	i	-1	eIF4H inh retest=22;PABP polyA inh retest=36
CN(C(=O)c1ccc(NC(=O)Cc2ccc(NC(=O)C3CCN(C(=O)CCc4ccccc4)CC3)cc2)cc1)C1CCCC1	·	8	1	-11	·	-7	·	·
CN(C)CCCNC(=S)NCC(c1ccc(Cl)cc1Cl)c1c[nH]c2ccccc12 (centres undefined)	9	-17	-7	-4	-15	-1	i	-7
O=C1CC(=O)Nc2cc(S(=O)(=O)N3CCOc4ccc(Cl)cc43)ccc2N1	4	-21	-8	1	·	6	i	-6

Compound activity as filed in PubChem.
